Compound activity deposited in PubChem by National Center for Advancing Translational Sciences (NCATS).
PINK1 expr mod – modulators of PINK1 expression. PINK1 immunofluorescence, high-content cytometry, 24 h. Potency, µM (doses to about 76.6 µM), for the others: at the highest dose activation (PINK1 increase), most hits filed as activators. 0.2% of 410,000 active. AID 624263; active = well fitted activation curve with a large enough effect; inconclusive = small, poorly fitted or top-dose-only effect; inactive = flat fitted curve, though single readings scatter; cell line not stated here;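 also: potency is read from the fitted curve at half-maximal effect; % of control where 0% means no effect; nearly all actives have a fitted effect of over 65% in size; a mitochondrial uncoupler was the plate control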
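Cells are seeded, rested 12 hours, then given compound at five concentrations or DMSO for 24 hours. After fixation, blocking and antibody staining, PINK1 amount and mitochondrial localization are scored; CCCP serves as control.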
TRPML1 blocker – inhibitors of human TRPML1 channel | Q9GZU1 | TRPML1-inducible cells, Ca2+ dye fluorescence, FDSS; hits give low values; inhibition of EC80 agonist-evoked calcium signal | AID 624415 | 0.02% of 390,000 active | activity change, negative = inhibition, % (no concentration beside the values); in the data active means activity change below about -50%; inconclusive means about -30% to -50%; inactive means above about -30%;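 also: stimulus is agonist 54-4 at its EC80 concentration; % is scaled to controls: 0 for no effect and ±100 for the full control effect; compound concentration not given in the record; the text of the record puts the active cut at -80%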
Target sequence (Q9GZU1 whole entry, looked up): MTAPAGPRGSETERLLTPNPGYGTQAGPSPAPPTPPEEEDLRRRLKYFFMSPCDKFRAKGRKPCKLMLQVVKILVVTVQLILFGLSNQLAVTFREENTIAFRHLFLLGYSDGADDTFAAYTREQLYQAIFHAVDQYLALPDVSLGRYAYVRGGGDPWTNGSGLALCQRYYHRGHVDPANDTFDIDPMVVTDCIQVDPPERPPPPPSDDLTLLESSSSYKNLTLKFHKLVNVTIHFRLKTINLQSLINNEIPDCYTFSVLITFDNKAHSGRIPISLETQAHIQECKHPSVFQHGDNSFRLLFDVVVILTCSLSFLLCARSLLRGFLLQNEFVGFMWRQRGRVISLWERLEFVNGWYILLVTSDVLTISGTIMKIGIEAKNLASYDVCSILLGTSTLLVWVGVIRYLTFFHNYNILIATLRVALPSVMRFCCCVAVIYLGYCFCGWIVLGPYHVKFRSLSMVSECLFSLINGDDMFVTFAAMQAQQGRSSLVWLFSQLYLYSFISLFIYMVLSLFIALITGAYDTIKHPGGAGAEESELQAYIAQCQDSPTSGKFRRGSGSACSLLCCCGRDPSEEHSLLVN
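Tet-induced TRPML1-DL cells loaded with Ca8 no-wash calcium dye were read kinetically on FDSS. Compound addition was followed by EC80 agonist 54-4 (4 uM final); inhibition was read over 110 s.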
TRPV1 PAM – enhances activation of the human vanilloid receptor TRPV1; Q8NER1; TRPV1-expressing cells, Fluo-8 calcium influx, capsaicin EC20 potentiation; host cell line not named in the record; control for the full effect not named in the record; potentiation, % at 8.33 µM; 0.02% of 320,000 active; AID 540277; active means potentiation above 80%; inconclusive means 30% to 80%; inactive means below 30%; also: 0% is about no effect
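TRPV1-expressing cells were cultured overnight at 35.5C and loaded with Fluo-8 calcium dye for 40 to 90 min at room temperature. After a 10 s baseline, compound was added and calcium influx was read kinetically for 3 min (ex 480/em 520 nm).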
ClpP mod – qHTS Assay for Activators of ClpP | purified B. subtilis ClpP, FRET peptide cleavage, 20 min | AID 651965, 2013 | ATP-dependent Clp protease proteolytic subunit (Bacillus subtilis (strain 168)), P80244 | 1.9% of 340,000 active | Potency, µM (top dose mostly 57.5 µM), for the others: top-dose activity change, negative = active; active = well fitted falling curve with a large enough effect; inconclusive = small, poorly fitted or top-dose-only effect; inactive = no such curve, though single readings can be large or run the other way; also: potency is read from the fitted curve at half-maximal effect; the source files actives as falling curves though it sought activators and does not explain the sign; nearly all actives have a fitted effect of over 65% in size; many hits overshoot -100%
Target sequence (P80244 whole entry, looked up): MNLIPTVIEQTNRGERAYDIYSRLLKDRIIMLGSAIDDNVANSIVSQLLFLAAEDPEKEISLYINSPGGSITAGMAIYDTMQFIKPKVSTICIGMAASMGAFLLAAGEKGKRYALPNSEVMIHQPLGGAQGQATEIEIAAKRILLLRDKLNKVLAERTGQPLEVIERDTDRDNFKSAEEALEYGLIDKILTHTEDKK
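ClpP 10 microg/mL final, pH 8 Tris/KCl buffer with BSA, glycerol, Tween-20; compound pinned in; FRET-FV substrate; RT 20 min; Ex320/Em430; ΔFRET vs ADEP 5.8 microM, DMSO, no enzyme.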
Menin MLL FP FL – inhibitors of human menin-MLL interaction, wild-type MLL peptide | Fluorescence polarization, fluorescein-MLL peptide displacement from menin | FP activity change, % at 61.4 µM | 290,000 tested, under 10 active; inconclusive = falling polarisation curve, or a change in total fluorescence; inactive = total fluorescence flat and polarisation flat or rising; no compound was filed as active; the % refers to the polarisation; negative = inhibition;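 also: % of control where 0% means no effect; inhibitors lower the polarisation; unlabelled MLL peptide was the positive control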
TRPML1 agonist – activates the human TRPML1 channel; TRPML1-expressing cells, Ca2+ dye fluorescence, FDSS; host cell line not named in the record; reference of the full effect not given here; Q9GZU1; 0.12% of 410,000 active; activation, % (no concentration beside the values); in the data active = activation above about 50%; inconclusive = about 30% to 50%; inactive = below about 30%; also: 0% is about no effect; the text of the record puts the active cut at 80%
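Tet-induced TRPML1-DL cells, 1,500 per well, cultured overnight, were loaded with a no-wash Ca2+ dye for 45–90 min. Calcium fluorescence was recorded on the FDSS for 110 s after compound addition, before the EC80 agonist (4 uM 54-4) was added.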
Sfp inh – inhibitors of Bacillus subtilis Sfp phosphopantetheinyl transferase | Q9F4F7 | Biochemical Sfp PPTase activity, qHTS | Potency, µM, without a hit: max response, negative = inhibition, hits mostly inhibitors | 3.5% of 310,000 active | AID 1490; active = well fitted inhibition curve with a large enough effect; inconclusive = small, poorly fitted or top-dose-only effect, or another doubt; inactive = no such curve, though single readings can be large or run the other way;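 also: the enzyme is Sfp with the accession as filed and its product quenches rhodamine fluorescence; potency is read from the fitted curve at half-maximal effect; 0% = enzyme reaction without inhibitor and -100% = no enzyme wells; top concentration of the series not given in the record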
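Fluorescence-quenching assay: 15 nM Sfp-PPTase preincubated 15 min at room temperature with compound, then 5 uM rhodamine-CoA and 12.5 uM BHQ-2-labelled YbbR peptide added. Fluorescence (ex 525/em 598 nm) read at start and after 30 min; difference gives rate.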
* hit, by the source's call; ? = inconclusive; / = no result given; [ ] = dose if it differs, or a comment.

molecule	PINK1 expr mod	TRPML1 blocker	TRPV1 PAM	ClpP mod	Menin MLL FP FL	TRPML1 agonist	Sfp inh
COc1ccc(C(=O)N(C)C2CCN(C)CC2)cc1S(=O)(=O)Nc1cc(Cl)ccc1Cl	0.7%	5	19	1.3%	0.9	-0.1	17%
CCc1cc2c(=O)c(-c3nc4ccccc4n3C)c(C(C)C)oc2c(CN2CCN(C)CC2)c1O	7.1%[38.3 µM]	7	-24	?	1.3	-0.6	-5%
COc1ccc(N2C(=O)C3C4C=CC(C4)C3C2=O)nn1 (configuration not stated)	1.7%	-10	7	-2.8%	5.8	0.4	14%
CCCc1cc(C(=O)Nc2sc(C(C)=O)c(C)c2C(=O)OCC)no1	0.2%	-1	-18	8.7%	0.1	-0.8	-21%
COc1cc(CNC(=O)c2ccc(NC(=O)N3CCCCc4ccccc43)cc2)cc(OC)c1OC	0.8%	-5	/	-1.5%	/	0.5	/
O=C(c1ccc([N+](=O)[O-])cc1)N1CCOCC1	1.0%	16	/	/	/	0.4	/
O=C1c2cccc(Cl)c2C(=O)c2c1cccc2N1CCCC1	-0.2%	36	/	0.3%	/	-0.3	/
CCOC(=O)c1c(C)[n+](-c2ccc(C)cc2)c(CC)c2cc(OC)c(OC)cc12	?	2	5	4.1%	-0.6	-0.3	14%
CNc1nc2c(C)cccn2c(=O)c1C=NCc1ccccc1	0.6%	-5	10	28%	1.2	-0.1	-19%
Cc1nn(-c2ccccc2)c(NC(=O)c2cccs2)c(-c2ccccc2Cl)c1=O	0.2%	-20	10	-1.4%	5.5	0.7	17%
Cn1cnc2cc(NCc3ccc(Cl)cc3)ccc21	2.5%	/	27	-11%	1.5	/	5%
CCOC(=O)N1CCN(C(=O)c2cc(OCC)c(OCC)c(OCC)c2)CC1	0.2%	6	2	-2.5%	-2.8	0.9	19%
C#CCOCCOCCOCCNc1nc(N2CCN(C(=O)[C@H]([C@@H](C)CC)n3cc([C@@H](N)CO)nn3)CC2)nc(N2CCN(C(=O)[C@H](Cc3ccc(O)cc3)n3cc([C@@H](N)CC(C)C)nn3)CC2)n1	-0.3%	-8	-5	-0.4%	-24	0.2	6%
COC(=O)CSc1ccc(S(=O)(=O)N2CCCCCC2)cc1[N+](=O)[O-]	2.7%	-13	-3	2.4%	-0.2	1.1	-11%
O=C(COc1ccccc1)Nc1nnc(-c2ccc(Cl)cc2)o1	-1.1%	-13	10	-17%	/	0.0	6%
CCOc1cc(CNC(=O)NC2COc3ccc(OC)cc3C2)cc(OCC)c1OCC (configuration not stated)	1.4%	-5	/	0.0%	/	0.7	/
Clc1ccccc1CSc1nncn1-c1cccnc1	/	/	5	/	0.6	/	8%
COc1cccc(OC)c1C(=O)Nc1ccc(S(=O)(=O)Nc2ncccn2)cc1	-1.0%	50	?	-1.0%	0.2	0.9	7%
CS(=O)(=O)c1ccc(C(=O)NCCN2C(=O)S/C(=C\c3cccnc3)C2=O)cc1[N+](=O)[O-]	-2.0%	15	-11	0.9%	-1.5	0.9	-25%
COc1ccc(-n2c(O)c(C=NCC(c3ccco3)N3CCCC3)c3ccccc3c2=O)cc1OC (configuration not stated)	1.5%	-3	?	-7.8%	?	1.0	-11%
NS(=O)(=O)c1ccc(S(=O)(=O)N2CCN(c3nc(-c4cccs4)nc4ccccc34)CC2)cc1	-0.5%	/	/	?	/	-0.3	/
CCCN(CC(=O)Nc1ccccc1C)C(=O)C1CCN(c2ncnc3sc(C)c(C)c23)CC1	-1.3%	-6	6	1.3%	/	1.2	/
Cc1ccc(C)c(NC(=S)NC(NC(=O)N(C)C)C(Cl)(Cl)Cl)c1 (configuration not stated)	1.9%[38.3 µM]	7	5	1.0%	1.9	-0.8	10%
CCOc1ccccc1C(=O)N(Cc1ccco1)Cc1ccco1	0.7%	3	/	0.5%	/	3.3	/
COc1cc(C(=O)OC(C)c2ccc(F)cc2)ccc1OCC(=O)N1CCOCC1 (configuration not stated)	1.5%	23	-5	-10%	/	-0.6	/
COc1nccnc1NS(=O)(=O)c1ccc(N=Cc2c(C)[nH]n(-c3ccc(Cl)cc3)c2=O)cc1	/	/	-3	/	2.1	/	13%
CN1CCN(c2ccc(NC(=O)c3ccco3)cc2Cl)CC1	-0.8%	-22	-5	-0.4%	0.0	0.3	13%
O=C(CCNS(=O)(=O)c1ccccc1C(F)(F)F)N1CCN(S(=O)(=O)c2cccc(F)c2)CC1	-0.1%	1	0	/	/	0.3	/
COc1ccc(CN2CCCC(C(=O)N3CCCC3)C2)c(OC)c1OC (configuration not stated)	3.7%	17	/	0.3%	/	-0.1	/
CCOc1ccccc1CN1CCN(CCCc2ccccc2)CC1CCO (configuration not stated)	0.0%	-7	-12	-1.3%	3.7	0.9	4%
Cc1cc([N+](=O)[O-])cc2c1NC(=O)C2(O)N1CCOCC1 (configuration not stated)	1.0%	-1	3	1.5%	-0.2	0.0	-8%
COc1ccc2nc(NC(=O)c3nc(SC(C)C)ncc3Cl)sc2c1	1.7%	-14	/	1.0%	/	-0.2	/
COc1ccc(CC(=O)N2N=C(C)CC2(O)c2cccnc2)cc1OC (configuration not stated)	0.0%	-14	3	-1.3%	3.2	-0.2	4%
COc1ccc(C(=O)NCCOc2cccc(OC)c2)cc1	1.7%	37	8	0.8%	1.7	0.2	15%
CCCCN(C(=O)C1=NN(c2ccccc2)C(=O)CC1)c1c(N)n(CCC)c(=O)[nH]c1=O	0.8%	31	/	-1.1%	/	-0.3	/
CCCCOC(=O)Nc1nnc(COc2ccccc2)s1	-0.1%[38.3 µM]	-4	26	-1.5%	-3.9	0.6	-5%
CCc1cc2c(=O)c(-c3cscn3)coc2c(CN(C)C)c1O	4.2%	14	5	16µM*	-1.8	-0.2	0%
C=CCN(c1ccc(C(=O)NCCCn2ccnc2)cc1)S(C)(=O)=O	-0.1%	0	7	/	0.5	0.3	14%
Cc1cccc(-n2c(SC(C)C(=O)O)nc3sc4c(c3c2=O)CCCC4)c1 (configuration not stated)	-1.2%	-10	-4	-1.9%	-3.8	2.6	5%
c1ccc(OCCCCN2CCCCC2)cc1	0.5%	-2	1	-0.1%	2.9	0.6	19%
C/C(CCC(C)C)=N\NC(=O)COc1ccccc1-c1ccccc1	12%	-7	0	/	-2.5	-0.4	-11%
Cn1c(=O)oc2cc(S(=O)(=O)Nc3ccccc3)ccc21	-1.7%	0	-11	/	2.1	-0.4	4%
CC(C)(C)C(=O)c1c(N)[nH]c(C(=O)c2ccccc2)c1-c1ccc(C(F)(F)F)cc1	7.3%	/	/	-0.5%	/	0.3	/
CC(C)(C)N(Cc1ccccc1)C(=O)COC(=O)C1=NN(c2ccccc2)C(=O)CC1	1.6%	-4	-8	?	/	-0.2	/
CC1=CC(C)(C)Nc2ccc(OC(=O)CN3C(=O)c4cccc5cccc(c45)C3=O)cc21	15%	-15	22	-9.1%	-0.4	2.9	40µM*
CCN(C(=O)CN1C(=O)S/C(=C\C=C\c2ccccc2)C1=O)C1CCS(=O)(=O)C1 (configuration not stated)	2.5%	5	0	2.2%	-0.4	0.3	-3%
O=C(N/N=C/c1ccco1)c1ccc(C(=O)N/N=C/c2ccco2)o1	-1.8%	-9	1	-6.2%	5.1	-0.1	22%
CCCCNC(=S)NC(C)(C)CO	-2.1%	-28	5	0.6%	5.0	0.4	9%
CNC(=O)/C(=N\O)c1ccccc1	/	/	-2	/	2.5	/	13%
COc1ccc(S(=O)(=O)NC2CCSc3ccccc32)cc1OC (configuration not stated)	-0.5%	-13	9	-1.6%	3.3	2.6	18%
Fc1ccccc1CCNc1c2c(nc3ncnn13)CCCC2	0.2%	-4	-2	/	2.4	0.7	-4%
COc1cc(C2C(C#N)=C(N)Oc3cc(C)oc(=O)c32)cc(OC)c1OC (configuration not stated)	10.0%	11	/	/	-0.4	-0.8	18%
CN1CCN(NC(=O)c2cc([N+](=O)[O-])cc([N+](=O)[O-])c2)CC1	3.1%[38.3 µM]	2	17	-0.7%	-3.5	-0.3	17%
CC(=O)NC(CC(=O)OCC(=O)N1c2ccccc2NC(=O)C1(C)C)c1ccccc1 (configuration not stated)	-0.7%	-7	-4	1.0%	/	-0.6	/
CC(=O)N/C(=N/c1nc(C)cc(C)n1)Nc1cccc(C)c1	-1.3%	47	-16	-4.1%	1.1	1.2	-5%
CC(C)[C@H](NC(=O)c1ccccc1)C(=O)OCC(=O)c1ccc2c(c1)NC(=O)CO2	-2.5%	0	4	18%	3.4	-1.0	-4%
CCOc1ccc(Cl)cc1C1CC(=O)Nc2cc(OC)c(OC)c(OC)c21 (configuration not stated)	0.4%	-2	/	-0.8%	/	-0.5	/
COc1ccccc1-c1cc(C(=O)Nc2cc(C)n(Cc3ccc(Cl)cc3)n2)no1	6.1%[38.3 µM]	18	4	115%	2.6	0.6	40µM*
Cc1cccc(NC(=O)c2cc3cc([N+](=O)[O-])ccc3s2)n1	0.3%	9	2	1.3%	0.0	3.4	19%
CCCCN1C(=O)C(O)(CC(=O)c2ccccn2)c2ccccc21 (configuration not stated)	4.6%	28	21	0.9%	-3.3	-0.2	10%

Further records:
molecule	PINK1 expr mod	TRPML1 blocker	TRPV1 PAM	ClpP mod	Menin MLL FP FL	TRPML1 agonist	Sfp inh
O=C(/C=C/c1ccc(S(=O)(=O)N2CCOCC2)cc1)NC(=S)Nc1ccc(N2CCOCC2)cc1	3.5%	2	-5	-2.0%	2.9	-0.4	4%
N#Cc1c(CSCC(=O)O)cc(=O)n2c1[nH]c1ccccc12	-0.2%	-3	-3	-13%	7.4	0.2	-8%
C=CCNc1nc(N)c(C(=O)Nc2cc(C)on2)s1	-3.7%[38.3 µM]	-10	-1	0.0%	2.7	-0.1	?
Cc1cc(N2CCOCC2)n2nc(C)c(-c3ccccc3Cl)c2n1	1.8%	-1	-27	-15%	-5.9	0.4	-11%
NC(=O)C1CCN(C(=O)c2ccc(NC(=O)c3nsc4ccccc34)cc2)CC1	0.1%	-13	/	-0.1%	/	0.2	/
